# FEN1 inh: blocks human flap endonuclease 1; P39748; Recombinant FEN1 flap cleavage, fluorescence, 15 min; Potency, µM (doses to about 114 µM), without a hit: at the highest dose activity change, negative = inhibition, most hits filed as inhibitors; 0.35% of 390,000 active; further: nearly all actives have a fitted effect of over 65% in size
# Target sequence (P39748 whole entry, looked up): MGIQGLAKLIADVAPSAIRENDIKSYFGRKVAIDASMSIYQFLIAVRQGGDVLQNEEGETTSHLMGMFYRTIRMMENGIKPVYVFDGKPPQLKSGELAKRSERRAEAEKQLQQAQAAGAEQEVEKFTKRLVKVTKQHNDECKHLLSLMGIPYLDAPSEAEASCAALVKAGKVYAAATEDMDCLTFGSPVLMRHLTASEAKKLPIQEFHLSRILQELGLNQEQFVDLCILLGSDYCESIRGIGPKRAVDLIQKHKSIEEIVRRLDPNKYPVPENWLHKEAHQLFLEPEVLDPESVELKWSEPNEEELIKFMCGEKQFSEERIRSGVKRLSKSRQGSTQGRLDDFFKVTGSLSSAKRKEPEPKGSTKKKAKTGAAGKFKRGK
#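 Potency values derive from four-parameter Hill fits of normalized qHTS data. The reaction used 10 nM FEN1 preincubated 15 min at room temperature with compound, then 50 nM DNA substrate, read at 0 and 15 min.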
# N370S GC mod: N370S glucocerebrosidase modulation, Gaucher chaperone candidate. N370S GC spleen homogenate, 4MU-glucoside fluorescence. Potency, µM (top dose mostly 59.4 µM), for inactives: at the top dose activity change, negative = inhibition, usual class: inhibitors. 0.092% of 330,000 active;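 further: 0% = full enzyme activity and -100% = no enzyme basal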
# An asterisk follows results filed as active; u = inconclusive; x = no result given; & = joins results of further samples. The call rests on the fitted dose curve; in most records, active means well fitted curve in the direction sought with a large enough effect; inconclusive means small, poorly fitted or top-dose-only effect, or another doubt; inactive means no such curve, though single readings can be large; an effect the other way counts as inactive or inconclusive. Unless noted, on the % scale 0 is the no-effect control and ±100 the full control effect; potency means the concentration at half of the fitted maximal effect. Not all compounds are listed, and most or all hits are left out here.
# The line under a structure holds: FEN1 inh, N370S GC mod
CCC(C(=O)NCc1cccs1)n1nc(C)n2c(cc3occc32)c1=O (configuration not stated)
 : 14%, 3%
N#CCC(=O)Nc1ccc(C(=O)OCC(=O)NNC(=O)c2ccc(Cl)cc2)cc1
 : u, -3%
O=C(NCCNC(=O)c1ccc(Cl)cc1Cl)c1ccco1
 : 11%, -4%
CCOC(=O)c1ccc(N2C(=O)CC(NC3CCN(C(=O)c4ccc(F)cc4)CC3)C2=O)cc1 (configuration not stated)
 : 3%, 2%
CC(=O)c1sc(NC(=O)C2COc3ccccc3O2)nc1C (configuration not stated)
 : 9%, 1%
O=C(CSCc1cnn(-c2ccccc2)c1-n1cccc1)NCc1ccc2c(c1)OCO2
 : -4%, 9%
CC(=O)N1c2c(cc(Br)cc2S(=O)(=O)N2CCN(c3ccccn3)CC2)CC1C (configuration not stated)
 : -3%, -5%
Cc1ccc(CS(=O)(=O)CCC(=O)NCc2ccc(F)cc2)cc1
 : -9%, -3%
NC1=NC2(CCCCCC2)n2c(nc3ccccc32)N1
 : -16%, -19%
O=C(NC(=S)N1CCN(C/C=C/c2ccccc2)CC1)c1c(F)cccc1F
 : 2%, -25%

# Following part
# The line under a structure holds: FEN1 inh, N370S GC mod
Cc1ccc(-n2nnc(-c3ccnc4ccccc34)n2)cc1
 : -3%, 20%
O=C1C2CC=C(Cl)CC2C(=O)N1c1ncn[nH]1 (configuration not stated)
 : -5%, 3%
O=Cc1ccc(OCc2nnsc2Cl)cc1
 : 5%, 0%
Cc1ccc(-c2cc(-c3ccccc3)c3c(N)c(S(C)(=O)=O)sc3n2)cc1
 : -20%, 12%
O=C1CCCc2nc(N3CCN(c4ccccc4)CC3)ncc21
 : -9%, 8%
COc1ccc(C(=O)NCC(=O)OCC(=O)N2CCN(S(=O)(=O)c3ccccc3)CC2)cc1
 : -1%, -2%
O=C(O)c1cc(S(=O)(=O)Nc2ccc(OCc3ccccc3)cc2)ccc1Br
 : 11%, 6%
COc1ccc(N=C2S/C(=C\c3ccc(C)o3)C(=O)N2CC(C)C)cc1
 : 5%, 17%
O=C(Nc1nnc(-c2ccc(Cl)cc2)o1)c1ccc(N2C(=O)CCC2=O)cc1
 : -3%, -6%
NS(=O)(=O)c1ccc(NC(=O)c2cc(-c3cccs3)nc3ccccc23)cc1
 : 1%&16%, 9%

# New compounds follow.
# The line under a structure holds: FEN1 inh, N370S GC mod
O=C(Nc1ccc(C(=O)O)cc1)/C(=C\c1ccco1)NC(=O)c1ccccc1Cl
 : 10%, -2%
O=C(CCN1C(=O)COc2ccccc21)NCc1cccs1
 : -6%, 11%
COc1cc(OC)c(NC(=O)c2ccc(F)cc2)cc1Cl
 : 8%, 5%
CCN(CC)C(=O)CSc1nc2ccccc2c(=O)n1-c1ccccc1OC
 : -1%, 2%
COc1ccc(C2=NOC(C(=O)NCc3cccs3)C2)cc1OC (configuration not stated)
 : -2%, 3%
CCOc1ccc(NC(=S)Nc2cc(-c3ccccc3)[nH]n2)cc1
 : 1%, 10%
CNC(=S)NNC(=O)COc1cccc(C)c1C
 : -9%, 1%
Cc1onc(-c2ccccc2Cl)c1C(=O)N1CCCCC1
 : -10%, 2%
C[C@H](CO)N1C[C@H](C)[C@@H](CN(C)S(=O)(=O)c2ccccc2)Oc2c(NS(=O)(=O)c3cccs3)cccc2C1=O
 : 0%, x
COc1ccc(C(=O)c2cn(Cc3ccc(C)cc3)c3cc4c(cc3c2=O)OCO4)cc1
 : 5%, x

# Following part:
# The line under a structure holds: FEN1 inh, N370S GC mod
Cc1ccccc1NC(=O)c1ccc(F)c(S(=O)(=O)N2CCN(c3ccccc3F)CC2)c1
 : -11%, x
CC1CC(C)CN(Cc2nc(N)nc(Nc3ccccc3)n2)C1 (configuration not stated)
 : -1%, -1%
O=C(O)c1ccccc1-n1c2ccccc2c2ccccc21
 : -5%, 4%
CCOC(=O)c1cnc(N2CCN(c3ccc(OC)cc3)CC2)c2ccccc12
 : 2%, x
Cc1ccc(SCCC(=O)NCC2CCCO2)cc1 (configuration not stated)
 : 6%, 3%
CCOc1cccc(C(=O)Nc2ccc(S(=O)(=O)Nc3cc(C)on3)cc2)c1
 : 6%, -2%
CCOC(=O)N1CCc2c(sc3c2c(=O)n(-c2ccc(F)cc2)c(=O)n3CC(=O)c2ccc(Cl)cc2)C1
 : -18%, x
Cc1noc(C)c1NC(=O)N(C)C[C@H]1Oc2c(NC(=O)C3CC3)cccc2C(=O)N([C@H](C)CO)C[C@@H]1C
 : -1%, x
O=C(CCC(=O)NC1CCN(Cc2ccccc2)CC1)NCc1ccco1
 : -2%, 0%
COc1ccc(C2(c3ccc(OC)cc3)NC(=O)N(CC(=O)NC3CCS(=O)(=O)C3)C2=O)cc1 (configuration not stated)
 : -1%, x

# Next section:
# The line under a structure holds: FEN1 inh, N370S GC mod
Cc1cc(NC(=O)c2c(-c3c(Cl)cccc3Cl)noc2C)n(C)n1
 : 9%, 9%
Cc1nc2ccccc2cc1OCc1ccc(Cl)cc1
 : -23%, -10%
CCNc1ccc(C(=O)OCC(=O)NCc2ccc(C)cc2)cc1[N+](=O)[O-]
 : 8%, 0%
CCN1CCN(CCCNC(=O)C2c3ccccc3C(=O)N(c3ccc(OC)cc3)C2c2ccc(OC)cc2)CC1 (configuration not stated)
 : -3%, 1%
Cc1cc(C)c(C(=O)COC(=O)CN2C(=O)NC3(CCCC3)C2=O)cc1C
 : 0%, x
O=C(c1ccco1)N1CCN(c2nc3ccccc3c(=O)n2-c2ccccc2)CC1
 : 13%, u
O=C(NNC(=O)c1ccc(F)cc1F)c1ccc(-n2cnnn2)cc1
 : 19%, 10%
CCN1CCCC1CNCc1ccccc1OCc1ccc(F)cc1 (configuration not stated)
 : 8%, 2%
CN1N=C2c3ccccc3CCC2C1c1ccc(C(F)(F)F)cc1 (configuration not stated)
 : 20%, 0%
COc1ccc([C@H]2CC(=O)C=C(c3cccc4c3sc3ccccc34)C2)cc1OC
 : 12%, x

# An excerpt of these results, as labelled records.
Cc1cc(C)c(C(=O)COC(=O)CN2C(=O)NC3(CCCC3)C2=O)cc1C
  FEN1 inh = 0%
  N370S GC mod = x
CCN1CCCC1CNCc1ccccc1OCc1ccc(F)cc1 (configuration not stated)
  FEN1 inh = 8%
  N370S GC mod = 2%

# Continuation.
# The line under a structure holds: FEN1 inh, N370S GC mod
CC(C)CCCC(C)C1CCC2C3CC[C@H]4CC(=O)CC[C@@]4(C)C3CC[C@@]12C (some centres not stated)
 : x, -7%
COC(=O)NC1CSCC1OC(=O)CCN1C(=O)c2ccccc2C1=O (configuration not stated)
 : 6%, 3%
Cc1ccc(NC(=O)Cn2c(=O)n(Cc3ccco3)c(=O)c3ccccc32)cc1
 : -1%, x
COCCNC(=O)c1cc2nc(-c3ccccc3)cc(C)n2n1
 : -1%, 6%
COC(=O)CSC1=C(C#N)C(c2sccc2C)CC(=O)N1 (configuration not stated)
 : 0%, 1%
OC[C@H]1O[C@@H]2O[C@H]3[C@H](O)[C@@H](O)[C@@H](O[C@H]4[C@H](O)[C@@H](O)[C@@H](O[C@H]5[C@H](O)[C@@H](O)[C@@H](O[C@H]6[C@H](O)[C@@H](O)[C@@H](O[C@H]7[C@H](O)[C@@H](O)[C@@H](O[C@H]8[C@H](O)[C@@H](O)[C@@H](O[C@H]1[C@H](O)[C@H]2O)O[C@@H]8CO)O[C@@H]7CO)O[C@@H]6CO)O[C@@H]5CO)O[C@@H]4CO)O[C@@H]3CO
 : x, 6%
C/C(=N\NC(=O)c1cccnc1)c1cc(C)oc1C
 : -1%, 14%
O=S1(=O)c2ccc(Br)cc2N2CCC[C@H]2CN1Cc1ccccc1
 : -15%, x
CC(=O)c1cccc(NC(=O)CCc2c(C)nc3c(c(C)nn3-c3ccccc3)c2C)c1
 : 4%, x
O=C(NNC(=S)NCC1CCCO1)c1cccc(S(=O)(=O)N2CCOCC2)c1 (configuration not stated)
 : 7%, -3%

# (more compounds)
# The line under a structure holds: FEN1 inh, N370S GC mod
Cc1ccnc2nc(C(=O)Nc3ccc4c(c3)OCO4)nn12
 : -5%, -5%
Cc1cc(NC(=O)CCC(=O)N(c2ccccc2F)C(C(=O)NC2CCCC2)c2ccccc2)no1 (configuration not stated)
 : -3%, -14%
COc1ccccc1NC(=O)COc1cc(C)nc(C(C)C)n1
 : 3%, 3%
COc1ccc(-n2c(SCC(=O)Nc3sc4c(c3C#N)CCCC4)nnc2-c2ccccc2OC)cc1
 : 1%, 6%
COc1ccccc1NC(=O)CSc1nc(C)c2c(c1C#N)CCCC2
 : -9%, 0%
Cc1ccc(OCCSc2nc3ccc(NC(=O)c4ccc5c(c4)OCO5)cc3s2)cc1
 : -2%, x
CN(CC(=O)Nc1ccc(Cl)c(C(F)(F)F)c1)C(=O)COC(=O)C1CC2CCCC(C1)C2=O (configuration not stated)
 : -21%, x
C[C@H]1CC2[C@@H]3CCC4=CC(=O)C=C[C@]4(C)[C@@]3(F)[C@@H](O)C[C@]2(C)[C@@]1(O)C(=O)CO (some centres not stated)
 : x, -4%
COc1ccc(/C=N/Nc2nnc(Cc3ccc(OC)c(OC)c3)c(=O)[nH]2)cc1OC
 : -1%, 1%
Cc1ccc(Cl)cc1N1CCN(C(=O)CNC(=O)c2ccc(Br)o2)CC1
 : -15%, x

# Going on with the list:
# The line under a structure holds: FEN1 inh, N370S GC mod
Cn1c(N2CCCCC2)cc(=O)n(C)c1=O
 : -6%, 8%
COc1ccc(CCNC(=O)COc2ccc(S(=O)(=O)N3CCOCC3)cc2C)cc1
 : -5%, -9%
CCOC(=O)c1c(C)c(/C=N/Nc2ccccc2)n(C)c1C
 : -4%, 6%
CCOP(=O)(OCC)C(Nc1ccc(C)cc1)c1ccco1 (configuration not stated)
 : 5%, -9%
CCOC(=O)C1CN(S(=O)(=O)c2ccccc2)CCN1S(=O)(=O)c1ccccc1 (configuration not stated)
 : -3%, x
Nc1ccc(O)c(C(=O)O)c1
 : x, -16%
COc1cccc(OC)c1OCc1cc(C2C3CCCC=C3C(C#N)=C(N)C2(C#N)C#N)c(C)cc1C (configuration not stated)
 : -11%, -3%
CC1(C)CC(CC(=O)O)(c2ccc(F)cc2)CCO1 (configuration not stated)
 : -10%, 4%
O=C1CC(c2c[nH]c3ccccc23)C(=O)N1c1ccccc1 (configuration not stated)
 : 1%, 1%
C=C1CCC(O)C/C1=C\C=C1/CCCC2(C)C1CCC2C(C)CCCC(C)C (configuration not stated)
 : x, -4%

# Reformatted as labelled records: part of the list above.
smiles: COc1ccc(/C=N/Nc2nnc(Cc3ccc(OC)c(OC)c3)c(=O)[nH]2)cc1OC
  FEN1 inh = -1%
  N370S GC mod = 1%

smiles: COc1ccc([C@H]2CC(=O)C=C(c3cccc4c3sc3ccccc34)C2)cc1OC
  FEN1 inh = 12%
  N370S GC mod = x

smiles: COc1ccc(C(=O)NCC(=O)OCC(=O)N2CCN(S(=O)(=O)c3ccccc3)CC2)cc1
  FEN1 inh = -1%
  N370S GC mod = -2%

smiles: CCOC(=O)c1c(C)c(/C=N/Nc2ccccc2)n(C)c1C
  FEN1 inh = -4%
  N370S GC mod = 6%

# Compound profiles, as listed above:
# O=C(NNC(=S)NCC1CCCO1)c1cccc(S(=O)(=O)N2CCOCC2)c1 (configuration not stated) as listed: FEN1 inh: 7%; N370S GC mod: -3%
# Cc1onc(-c2ccccc2Cl)c1C(=O)N1CCCCC1 as listed: FEN1 inh: -10%; N370S GC mod: 2%

# (cont.)
# The line under a structure holds: FEN1 inh, N370S GC mod
Cc1ccc(C)c(N2CCN(c3ccc4cc(S(=O)(=O)N5CCC(C)CC5)ccc4n3)CC2)c1
 : 1%, x
Cc1ccc(C(=O)OCC(=O)N(CCc2ccccc2)Cc2ccccc2)cc1S(=O)(=O)N1CCOCC1
 : -7%, -6%
Cc1cc(NC(=O)c2c(-c3ccccc3Cl)noc2C)no1
 : -1%, -21%
O=C(Nc1cc(Sc2nc3ccccc3s2)cc([N+](=O)[O-])c1)c1cccc(F)c1F
 : -4%, 4%
O=C(NCCCN1CCOCC1)c1ccc(Cl)s1
 : 1%, 4%
CCn1c(SCC(=O)NCc2ccc3c(c2)OCO3)nnc1-c1ccncc1
 : -12%, 4%
CCOc1ccc(NC(=O)c2cc(S(=O)(=O)N3CCCCCC3)cn2C)cc1
 : 2%, x
O=C(CN1CCN(c2ccccc2)CC1)Nc1ccc(-n2cnnn2)cc1
 : 1%, 3%
CCOc1ccccc1CN1CCCC(C(=O)Nc2cccc(-n3cccn3)c2)C1 (configuration not stated)
 : 4%, -15%
CCc1ccc(N(CC(=O)NC2CCCCC2)S(=O)(=O)c2c(C)noc2C)cc1
 : -5%, -3%

# Further structures:
# The line under a structure holds: FEN1 inh, N370S GC mod
S=C(NCC1CCCCC1)Nc1cccnc1
 : -1%, -5%
O=C(Nc1cccc(C(=O)NC2CCCCC2)c1)c1ccccc1
 : 6%, 16%
CCCNS(=O)(=O)c1ccc(OCC(=O)NCc2ccco2)cc1
 : -16%, -3%
CSc1nnnn1-c1ccc(C)c(Cl)c1
 : -7%, -27%
Cc1n[nH]c(=O)nc1N/N=C/c1cccs1
 : -4%, -13%
CC(=O)Nc1ccc(S(=O)(=O)N2CCC(C(=O)NCc3cccnc3)CC2)cc1
 : -11%, -2%
O=C1c2ccccc2NC(c2ccccc2)N1/N=C/c1ccccc1 (configuration not stated)
 : -16%, 0%
Cc1ccc(-n2c(-c3ccncc3)n[nH]c2=S)c(C)c1
 : -1%, -17%
CN(Cc1cnc2nc(N)nc(N)c2n1)c1ccc(C(=O)N[C@@H](CCC(=O)O)C(=O)O)cc1
 : u, 3%&18%&13%
Cc1ccc(OCc2nc(-c3cccs3)no2)c([N+](=O)[O-])c1
 : -8%, 10%
Cc1cccc(C)c1NC(=O)c1ccc([N+](=O)[O-])s1
 : -3%, 1%
